# Screening data: PubChem BioAssay, National Center for Advancing Translational Sciences (NCATS)
# hNpr1 antagonist = antagonists of human natriuretic peptide receptor Npr1. HEK293 hNpr1 GloSensor cGMP, ANP-stimulated luminescence. Potency, µM (highest dose often 46.3 µM), inactives show at the top dose activity change, negative = inhibition, actives largely listed as inhibitors. 76,000 tested, 1.6% active. AID 1347048; active = well fitted inhibition curve with a large enough effect; inconclusive = small, poorly fitted or top-dose-only effect; inactive = no such curve, though single readings can be large or run the other way;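 also: nearly all actives have a fitted effect of over 60% in size; nearly all hits also lower the signal before the agonist is added; a reference antagonist and vehicle were the controls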
# Target sequence (P16066 whole entry, looked up): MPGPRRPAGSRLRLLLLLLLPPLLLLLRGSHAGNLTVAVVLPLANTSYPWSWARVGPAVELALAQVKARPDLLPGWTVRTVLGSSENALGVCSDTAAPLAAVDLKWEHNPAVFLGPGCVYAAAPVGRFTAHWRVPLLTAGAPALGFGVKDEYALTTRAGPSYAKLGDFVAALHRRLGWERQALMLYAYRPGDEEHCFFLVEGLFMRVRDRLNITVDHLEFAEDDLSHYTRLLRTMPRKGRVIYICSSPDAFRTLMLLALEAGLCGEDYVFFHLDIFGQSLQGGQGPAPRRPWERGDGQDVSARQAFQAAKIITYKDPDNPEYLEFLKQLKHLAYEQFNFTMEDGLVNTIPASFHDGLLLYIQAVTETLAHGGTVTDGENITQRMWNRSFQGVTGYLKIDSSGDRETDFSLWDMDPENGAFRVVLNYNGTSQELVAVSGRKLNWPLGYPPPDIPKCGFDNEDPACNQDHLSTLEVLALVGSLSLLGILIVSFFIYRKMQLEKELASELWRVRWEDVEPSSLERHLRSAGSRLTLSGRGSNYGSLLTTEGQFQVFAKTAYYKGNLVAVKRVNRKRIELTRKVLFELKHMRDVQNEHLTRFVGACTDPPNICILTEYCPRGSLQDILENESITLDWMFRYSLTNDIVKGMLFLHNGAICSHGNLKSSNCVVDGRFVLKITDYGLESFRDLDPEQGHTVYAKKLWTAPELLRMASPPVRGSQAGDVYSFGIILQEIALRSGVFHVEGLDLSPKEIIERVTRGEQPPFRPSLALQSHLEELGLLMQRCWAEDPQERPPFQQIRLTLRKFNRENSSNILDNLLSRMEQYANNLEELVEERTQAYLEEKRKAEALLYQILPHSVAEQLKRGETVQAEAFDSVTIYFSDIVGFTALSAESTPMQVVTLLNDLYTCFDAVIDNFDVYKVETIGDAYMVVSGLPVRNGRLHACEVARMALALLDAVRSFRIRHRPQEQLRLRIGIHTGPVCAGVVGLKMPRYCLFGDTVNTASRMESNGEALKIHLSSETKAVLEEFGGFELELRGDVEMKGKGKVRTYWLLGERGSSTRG
#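 Compound pre-incubated 30 min at room temperature on GloSensor-loaded HEK293 cells stably carrying hNpr1 and the pGS-40F cGMP biosensor. Stimulation uses hNppA at 0.1 nM final; luminescence is taken at baseline and 20 min post-agonist.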
# The depositor's hits bear a star; u = inconclusive; [ ] = remark or other dose. % is scaled to controls: 0 for no effect and ±100 for the full control effect; potency is read from the fitted curve at half-maximal effect.
SMILES,hNpr1 antagonist
CN1CCOC[C@H]2CCN(C(=O)c3ccncc3)C[C@H]21,0.0%
O=C1CO[C@H]2CN(Cc3ccncc3)C[C@H]2N1Cc1ccccc1,-5.0%[70.6 µM]
COC(=O)N1CCC2(C1)N=C(c1cccnc1)C(=O)N2 (stereo unspecified),0.0%[70.6 µM]
COc1cccc(CC(=O)N2[C@H]3CC[C@@H]2c2cnc(-c4ccc(F)cc4)nc2C3)c1,5.2%
COc1cc2c(cc1OCc1ccccc1)N(C(=O)c1ccn(C)n1)CC21CCN(C)CC1,3.4%
Cc1nc(-c2ccco2)cc([C@H]2CN3CC[C@H]2C[C@@H]3CNC(=O)c2ccccc2)n1,-9.7%[70.6 µM]
COc1cc2c(cc1OCc1ccccc1)N(C(=O)c1ccccc1OC)CC21CCN(C)CC1,-1.6%
Cc1nc(-c2ccc(C(F)(F)F)cc2)cc([C@H]2CN3CC[C@H]2C[C@@H]3CNC(=O)C(C)(C)C)n1,-0.4%
C#CCN(C)C[C@H]1CN2CC[C@H]1C[C@@H]2CNC(=O)Nc1ccc(C(C)=O)cc1,-1.9%[70.6 µM]
Cc1ccsc1C(=O)N1CCC2(CC1)c1nccn1-c1ccccc1CN2C,-5.9%
COc1cccc(CN2CC[C@@H]3CN(S(C)(=O)=O)[C@@H]3C2)n1,0.6%
O=C(c1ccccc1)N1C[C@@H]2C[C@H](C1)c1c(-c3cncnc3)ccc(=O)n1C2,0.0%[70.6 µM]
c1ccc2c3c([nH]c2c1)C1(CCNCC1)NCC3,-0.4%
CC(=O)N1CCC2(CC1)C(=O)NN=C2c1cccnc1,9.5%[70.6 µM]
Cc1ccc([C@@H]2CN(C(=O)c3snnc3C)[C@@H]3C4CCN(CC4)[C@@H]32)cc1,2.8%
Cn1nc(-c2ccc(F)cc2)cc1[C@H]1CN2CC[C@H]1C[C@@H]2CNC(=O)COc1ccccc1,-12.3%
C=CCN(C)C[C@H]1CN2CC[C@H]1C[C@@H]2CNC(=O)Nc1ccccc1,5.9%[70.6 µM]
COc1ccc(-c2cc([C@H]3CN4CC[C@H]3C[C@@H]4CNC(=O)c3ccc(C)cc3)n(C)n2)cc1,-9.6%
CC1=NOC2(CCN(Cc3ccccc3)C2)C1 (stereo unspecified),7.0%[70.6 µM]
CCc1cnc(N2CCC3(CC2)C(=O)Nc2cc(OCc4ccccc4)c(OC)cc23)nc1,-0.9%
CC(C)NC(=O)N1CC[C@@H](CC(=O)O)[C@@H](CCN2C[C@@H]3C[C@H](C2)c2cccc(=O)n2C3)C1,4.2%
CCCn1ncc(C(=O)N[C@H]2COC[C@H]2Cc2cc(C)no2)c1C,3.1%
CC(C)(O)c1cn(C[C@H]2C[C@@H]3CCN2C[C@@H]3C(=O)N2CCOCC2)nn1,3.1%[70.6 µM]
COc1cc2c(cc1OCC1CC1)NC(=O)C21CCN(C(=O)C(C)C)CC1,6.5%[70.6 µM]
O=C(O)C1CN(Cc2ncc[nH]2)CCN(C(=O)Cc2cccs2)C1 (stereo unspecified),0.0%

# (cont.)
SMILES,hNpr1 antagonist
CC[C@H]1CN2CC[C@H]1C[C@@H]2CNS(=O)(=O)c1ccc(C)cc1,2.1%[70.6 µM]
COc1ccccc1-c1cc([C@H]2CN3CC[C@H]2C[C@@H]3CNC(=O)Nc2cccc(C#N)c2)n(C)n1,1.7%
CN1C(=O)C2(CCN(Cc3cccnc3)C2)c2ccccc21 (stereo unspecified),9.0%[70.6 µM]
COc1cc2c(cc1Oc1cccc(N(C)C)c1)NC(=O)C21CCN(C(=O)C(C)C)CC1,-3.6%[70.6 µM]
COc1cc2c(cc1Oc1ccccc1)NC(=O)C21CCN(C(=O)c2ccnn2C)CC1,u
O=C(NCc1ccc2c(c1)OCO2)[C@H]1CN2CCC1C[C@@H]2Cn1cc(C2(O)CCCCC2)nn1 (stereo partly specified),2.7%
COc1ccc(S(=O)(=O)NC[C@H]2C[C@@H]3CCN2C[C@@H]3CN(C)Cc2ccccc2)cc1,0.6%
C=C[C@H]1CN2CC[C@H]1C[C@@H]2CNC(=O)Nc1ccc(Br)cc1,-5.6%[70.6 µM]
O=S(=O)(NC[C@H]1C[C@@H]2CCN1C[C@@H]2CN1CCc2ccccc21)c1ccccc1,-13.8%[70.6 µM]
COCCNC(=O)[C@H]1CN2CCC1C[C@@H]2Cn1cc(CSc2ccccc2)nn1 (stereo partly specified),1.3%[70.6 µM]
CCCS(=O)(=O)N1C[C@@H]2C[C@H](C1)c1c(-c3ccccc3)ccc(=O)n1C2,5.8%[70.6 µM]
Cc1nc(-c2ccco2)cc([C@H]2CN3CC[C@H]2C[C@@H]3CNCC2CCCCC2)n1,-20.7%[70.6 µM]
C#C[C@H]1CN2CC[C@H]1C[C@@H]2CNC(=O)c1ccc(F)c(Cl)c1,-6.9%[70.6 µM]
O=C(NCc1ccc(F)cc1)[C@H]1CN2CCC1C[C@@H]2Cn1cc(CO)nn1 (stereo partly specified),-0.8%[70.6 µM]
COc1ccc(-c2cc([C@H]3CN4CC[C@H]3C[C@@H]4CNC(=O)Nc3ccccc3)n(C)n2)cc1,1.8%
O=C(NCc1ccc(F)cc1)[C@H]1CN2CCC1C[C@@H]2Cn1cc(C2(O)CCCCC2)nn1 (stereo partly specified),1.9%
O=C(c1cccs1)N1[C@H]2CC[C@@H]1c1cnc(-c3ccccc3)nc1C2,u
CC(C)NC(=O)[C@H]1CN2CCC1C[C@@H]2Cn1cc(-c2ccc(F)cc2)nn1 (stereo partly specified),-3.5%[70.6 µM]
COc1ccccc1-c1cc([C@H]2CN3CC[C@H]2C[C@@H]3COC(=O)NC(C)C)nc(C)n1,-3.7%[70.6 µM]
O=C(NCc1ccc2c(c1)OCO2)[C@H]1CN2CCC1C[C@@H]2Cn1cc(-c2cccc(O)c2)nn1 (stereo partly specified),0.4%
O=C(Nc1ccccc1)N1C[C@@H]2C[C@H](C1)c1ccc(C3CCCCC3)c(=O)n1C2,4.3%[70.6 µM]
CN1Cc2ccccc2-n2ccnc2C12CCN(C(=O)NCCc1ccccc1)CC2,-12.9%
CC1(C)C(C(=O)N2C[C@@H](C(=O)O)C[C@@H](C(=O)NCc3ccncc3)C2)C1(C)C,1.4%
COc1ccc2c(c1)C1(CCN(S(=O)(=O)c3ccc4c(c3)CC(=O)N4C)C1)C(=O)N2C (stereo unspecified),-8.6%
CNc1ccc(OC2CCNCC2)nc1,0.3%

# (continued)
SMILES,hNpr1 antagonist
COc1ccc(C(=O)NC[C@H]2C[C@@H]3CCN2C[C@@H]3c2cc(-c3ccc(F)cc3)nn2C)cc1,-0.2%
CC(C)NC(=O)[C@H]1CN2CCC1C[C@@H]2Cn1cc(C2(O)CCCCC2)nn1 (stereo partly specified),3.3%[70.6 µM]
Cc1ncc2c(n1)C[C@@H]1CC[C@H]2N1C(=O)CCC1CCCC1,-0.8%
CN(CCc1ccccn1)C[C@H]1CN2CC[C@H]1C[C@@H]2CNS(=O)(=O)c1ccc(Cl)cc1,2.6%
Cc1ncc2c(n1)C[C@@H]1CC[C@H]2N1C(=O)c1cnccn1,0.2%
c1cc(-c2nnc(C3CNCC34CCOCC4)o2)ccn1 (stereo unspecified),3.9%
Cn1nc(-c2ccc3ccccc3c2)cc1[C@H]1CN2CC[C@H]1C[C@@H]2CNS(=O)(=O)c1cccs1,-3.8%
CC[C@H]1CN2CC[C@H]1C[C@@H]2COC(=O)Nc1ccc(C(C)(C)C)cc1,6.0%[70.6 µM]
COc1ccc(CC(=O)Nc2ccc(N3CCC(NC(C)Cc4cccnc4)CC3)cc2)cc1 (stereo unspecified),2.7%
Cc1nc(-c2ccc(N(C)C)cc2)cc([C@H]2CN3CC[C@H]2C[C@@H]3CNC(=O)C2CC2)n1,-2.3%[70.6 µM]
COc1cc2c(cc1OCc1ccccc1)NC(=O)C21CCN(C(=O)c2ccccc2)CC1,3.0%
CCCc1nc(C(=O)N2C[C@@H](c3ccc(F)cc3)[C@@H]3[C@H]2C2CCN3CC2)cs1,-0.7%
COc1ccc(CNC[C@H]2C[C@@H]3CCN2C[C@@H]3c2cc(-c3ccc4ccccc4c3)nn2C)cc1,0.0%
CC(=O)NCCNC(=O)[C@H]1CN2CCC1C[C@@H]2Cn1cc(CSc2ccccc2)nn1 (stereo partly specified),-3.4%
Cc1nc(-c2ccccc2Br)cc([C@H]2CN3CC[C@H]2C[C@@H]3CNS(=O)(=O)c2cccs2)n1,4.0%
O=C(NCc1ccccc1)c1cn(C2CNC2)nn1,2.6%
CC(C)(C)c1cn(C[C@H]2CC3CCN2C[C@@H]3C(=O)NCc2ccccc2)nn1 (stereo partly specified),4.0%[70.6 µM]
CC(C)CN[C@H]1[C@H](O)[C@H](O)C[C@@H]1c1ccccc1,-4.7%[70.6 µM]
COc1cc2c(cc1Oc1cccc(N(C)C)c1)NC(=O)C21CCN(C(C)=O)CC1,-10.6%[70.6 µM]
COc1ccccc1CNC(=O)[C@H]1CN2CCC1C[C@@H]2Cn1cc(CN(C)C)nn1 (stereo partly specified),-1.0%[70.6 µM]
COc1ccccc1N1CCN(C[C@H]2CN3CC[C@H]2C[C@@H]3CNC(=O)Nc2cccc(C#N)c2)CC1,1.7%
COCCC(=O)N1C[C@@H]2C[C@H](C1)c1ccc(-c3cccc(C(F)(F)F)c3)c(=O)n1C2,0.7%[70.6 µM]
C#C[C@H]1CN2CC[C@H]1C[C@@H]2CNC(=O)c1ccc2ccccc2c1,-1.7%[70.6 µM]
COc1ccccc1N1CCN(C(=O)[C@H]2CN3CCC2C[C@@H]3Cn2cc(C(C)(C)C)nn2)CC1 (stereo partly specified),1.6%
CCCN1CCNc2cc(Nc3ccccc3)ncc2C1,-0.7%[70.6 µM]

# Gathered by group, the entries above with a CF3 group (two)
SMILES,hNpr1 antagonist
Cc1nc(-c2ccc(C(F)(F)F)cc2)cc([C@H]2CN3CC[C@H]2C[C@@H]3CNC(=O)C(C)(C)C)n1,-0.4%
COCCC(=O)N1C[C@@H]2C[C@H](C1)c1ccc(-c3cccc(C(F)(F)F)c3)c(=O)n1C2,0.7%[70.6 µM]

# A second format for some results above.
compound | hNpr1 antagonist
Cc1nc(-c2ccc(N(C)C)cc2)cc([C@H]2CN3CC[C@H]2C[C@@H]3CNC(=O)C2CC2)n1 | -2.3%[70.6 µM]
COCCNC(=O)[C@H]1CN2CCC1C[C@@H]2Cn1cc(CSc2ccccc2)nn1 (stereo partly specified) | 1.3%[70.6 µM]
CN1Cc2ccccc2-n2ccnc2C12CCN(C(=O)NCCc1ccccc1)CC2 | -12.9%
CCCS(=O)(=O)N1C[C@@H]2C[C@H](C1)c1c(-c3ccccc3)ccc(=O)n1C2 | 5.8%[70.6 µM]

# Further records:
SMILES,hNpr1 antagonist
N#Cc1cccc(NC(=O)Nc2ccc3n(c2=O)C[C@H]2C[C@@H]3CN(C3CCOCC3)C2)c1,5.7%[70.6 µM]
CC(C)c1ccc(NC(=O)OC[C@H]2C[C@@H]3CCN2C[C@@H]3c2cc(C3CCCCC3)nn2C)cc1,-19.4%
C=C[C@H]1CN2CC[C@H]1C[C@@H]2CNC(=O)CSCC(=O)O,1.2%[70.6 µM]
O=C(Nc1ccc(=O)n2c1[C@@H]1C[C@@H](CN(S(=O)(=O)c3ccccc3)C1)C2)c1ccccc1,-13.4%
Cc1nc(-c2ccccc2)cc([C@H]2CN3CC[C@H]2C[C@@H]3CNC(=O)C2CCC2)n1,-10.2%[70.6 µM]
CC[C@H]1CN2CC[C@H]1C[C@@H]2CNS(=O)(=O)c1ccc2ccccc2c1,1.0%[70.6 µM]
Nc1cccc(-c2cn(C[C@H]3CC4CCN3C[C@@H]4C(=O)NC3CCCCC3)nn2)c1 (stereo partly specified),4.5%[70.6 µM]
C#C[C@H]1CN2CC[C@H]1C[C@@H]2CNS(=O)(=O)c1ccccc1,1.6%[70.6 µM]
COc1cc2c(cc1CCc1ccccc1)N(C(=O)c1c[nH]c3ccccc13)CC21CCN(C(C)=O)CC1,-19.0%
O=c1ccc(-c2ccccc2F)c2n1C[C@H]1C[C@@H]2CN(S(=O)(=O)c2ccccc2)C1,4.7%[70.6 µM]
O=C1CO[C@H]2CN(Cc3ccccn3)C[C@H]2N1,-9.3%[70.6 µM]
N#Cc1cccc(-c2ccc(=O)n3c2[C@@H]2C[C@@H](CN(C(=O)Nc4ccccc4)C2)C3)c1,-1.2%[70.6 µM]
NC(=O)CN1C(=O)CO[C@H]2CN(C3CCC3)C[C@H]21,1.9%[70.6 µM]
Cc1cccc(C(=O)N2CCC3(CC2)c2nccn2-c2ccccc2CN3C)c1,0.1%
O=C(Cc1ccc(F)cc1F)N1CCN(Cc2ccccc2)CC(O)C1 (stereo unspecified),8.5%
Cn1nc(C(=O)N[C@@H]2COCC[C@@H]2OCc2cscn2)c2ccccc21,9.8%
C=CCN(C)C(=O)[C@H]1CN2CCC1C[C@@H]2Cn1cc(-c2ccccc2)nn1 (stereo partly specified),1.4%[70.6 µM]
Cc1nc(-c2ccco2)cc([C@H]2CN3CC[C@H]2C[C@@H]3CNC(=O)C2CCCCC2)n1,u
COc1ccccc1CCC(=O)N1CCC2(CC1)NCc1ccccc1-n1ccnc12,-9.6%
COc1ccc(CNC(=O)N2[C@H]3CC[C@@H]2c2cncnc2C3)cc1,5.3%
COC(=O)c1ccc(NC(=O)N2[C@H]3CC[C@@H]2c2cnc(-c4ccc(F)cc4)nc2C3)cc1,u

# A section of the results above:
SMILES,hNpr1 antagonist
C#C[C@H]1CN2CC[C@H]1C[C@@H]2CNC(=O)c1ccc(F)c(Cl)c1,-6.9%[70.6 µM]
O=C(NCc1ccc(F)cc1)[C@H]1CN2CCC1C[C@@H]2Cn1cc(CO)nn1 (stereo partly specified),-0.8%[70.6 µM]
COc1ccc(-c2cc([C@H]3CN4CC[C@H]3C[C@@H]4CNC(=O)Nc3ccccc3)n(C)n2)cc1,1.8%

# A portion of the library, so the mix of outcomes need not match the whole.
